Screening data (PubChem BioAssay)
HSV augment – enhancers of HSV replication in host cells, fold increase, host cell viability. AID 1956, 2009. maximum fold increase. HSV replication augmentation in cells. 220,000 tested, 0.005% active;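 active = peak rise of 1.5-fold or more in the series; tested in PC3 cells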;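 note: first round at 10 µM; read as green reporter fluorescence; hits show the peak of a series up to 25 µM; 1 = signal of infected wells without compound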
HSV augment primary fold – further read-out of HSV augment, marked with its call; fold increase; compound at 10 µM; measured here: primary screen fold increase 10 uM; tested in PC3 cells;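 GFP signal in the first replicate; 1 = infected wells without compound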
* marks the source's active call; other numbers are inactive results; i = inactive.

SMILES	HSV augment	HSV augment primary fold
O=C(Nc1ccc(N2C(=O)C3C4C=CC(C4)C3C2=O)cc1)Nc1nncs1 (stereo unspecified)	i	0.85
CCN1CCCC1CN(Cc1cc2cc(C)cc(C)c2[nH]c1=O)C(=O)Nc1ccccc1OC (stereo unspecified)	i	0.97
O=S1(=O)CCOC[C@H](Cc2ccccc2)N1Cc1cccc(C(F)(F)F)c1	i	0.89
CCCC(=O)Nc1nn(C)c2nc3cc(C)ccc3cc12	i	0.86
COc1c(O)cccc1[C@@H](O)C1CCN(CCc2ccc(F)cc2)CC1	i	0.99
CS(=O)(=O)N1c2ccccc2[C@]2([C@@]34C[C@H]5C(=O)N[C@@H](Cc6ccccc6)C(=O)N5[C@@H]3N(S(C)(=O)=O)c3ccccc34)C[C@H]3C(=O)N[C@@H](Cc4ccccc4)C(=O)N3[C@H]12	i	0.99
CCC(=O)NS(=O)(=O)c1ccc(-c2c(-c3ccccc3)noc2C)cc1	i	0.99
CCOC(=O)c1ccc(NC(=O)c2c(NCc3ccccc3)[nH]c(=O)[nH]c2=O)cc1	i	0.87
COc1ccc([C@H]2/C=C\CN(C(=O)C3CC3)[C@@H](C)C(=O)N2Cc2ccc(F)cc2)cc1	i	0.88
OCC[C@H]1C[C@@H](O)[C@H](O)[C@@]2(CCCCO2)O1	i	0.82
O=C1CCC(c2ccc(-n3ccnc3)cc2)=NN1	i	0.69
CCOC(=O)CN1C(=O)N[C@@H](c2cccc(F)c2)C(C(=O)OC)=C1C	i	0.86
O=C(/C=C/c1ccc(O)c(O)c1)OCCc1ccccc1	i	0.63
Cc1csc(NC(C)c2nc3cc(Cl)c(N4CCCCC4)cc3n2CCOCCO)n1 (stereo unspecified)	i	0.95
COc1ccc(CNC(=O)c2cc3c(=O)n4ccccc4nc3n(CC3CCCO3)c2=N)cc1 (stereo unspecified)	i	1.09
O=C(O[C@H]1[C@H](Oc2ccccc2COC(=O)C2(O)C=CCCC2=O)O[C@H](CO)[C@@H](O)[C@@H]1O)c1ccccc1 (stereo partly specified)	i	0.76
O=C(NC1CC1)C1=C[C@@H](c2ccc(C(F)(F)F)cc2)C[C@@H](OCCCCO)O1	i	0.9
COc1ccc(-c2csc(NC(C)c3nc4cc(Cl)c(Cl)cc4n3CCCO)n2)cc1 (stereo unspecified)	i	0.9
COc1cc2oc3ccc(C#Cc4ccc(N)cc4)cc3c(=O)c2cc1OC	i	0.75
C#Cc1ccc([C@@H]2C=C(C(=O)O)O[C@H](OCC)[C@H]2CCCO)cc1	i	0.96
COc1ccc(NC(=O)c2ccc3c(c2)S(=O)(=O)c2ccccc2C3=O)cc1	i	0.7
O=C1c2ccccc2S(=O)(=O)c2cc(C(=O)N3CCC(N4CCCC4)CC3)ccc21	i	0.73
CCN1C(=O)N[C@@H](c2cccc(C(F)(F)F)c2)C(C(=O)OC)=C1C	i	0.78
Cc1ccc(C2C=C(c3ccccc3)Nc3ncnn32)cc1 (stereo unspecified)	i	1.04
Cc1cc(-c2cc(C(=O)Nc3ccccc3)on2)nc(NCC2CC2)n1	i	0.66
COC(=O)CCCC1=CC2=CC(=O)C(C)(OC(=O)c3cnc4ccccc4n3)C(=O)C2=CO1 (stereo unspecified)	i	0.77
CCCCN1C(=O)NC(c2cccc([N+](=O)[O-])c2)C(C(=O)OCC)=C1C (stereo unspecified)	i	0.89
C[C@@H]1C=C[C@](Cc2ccccc2)(C(=O)O)N1C(=O)c1ccccc1	i	0.75
Cc1csc(N2CCCC2c2nc3cc(C(F)(F)F)ccc3n2CCOCCO)n1 (stereo unspecified)	i	1.06
O=C(NCCCN1CCOCC1)c1onc(CSc2ccncc2)c1C(=O)NCCCN1CCOCC1	i	1.13
COC(=O)C1=C(C)N(CCCC(=O)O)C(=O)NC1c1cccc(OC)c1 (stereo unspecified)	i	0.96
COc1ccc(C(=O)c2ccc3oc(-c4ccc(OC)cc4)c(C#CCCO)c3c2)cc1	i	0.81
CCC(=O)NCCc1nc(-c2ccccc2)no1	i	0.97
CC(C)c1cc(-c2cc(C(=O)Nc3ccccc3)on2)nc(NCC2CC2)n1	i	0.75
O=C(O)C[C@H]1c2cc(C(F)(F)F)ccc2S(=O)(=O)N1C1CCN(Cc2ccccc2)CC1	i	0.91
COc1cc2c(CCNC(C)=O)c[nH]c2cc1O	i	0.91
CN1C(=O)c2oc3ccccc3c(=O)c2C1c1ccncc1 (stereo unspecified)	i	1.02
CC(=O)C1=C(C)N(Cc2ccccc2)C(=O)N[C@H]1c1cccc(F)c1	i	0.89
NC1=NC[C@H](c2ccccc2)N1CC1CCCCC1	i	0.82
COC(=O)/C(=C\c1c(OC)cc(OC)cc1OC)C(=O)c1ccc2c(c1)OCO2	i	0.77

Part of the list above, as a markdown table:
| compound | HSV augment | HSV augment primary fold |
| --- | --- | --- |
| C[C@@H]1C=C[C@](Cc2ccccc2)(C(=O)O)N1C(=O)c1ccccc1 | i | 0.75 |
| Cc1csc(N2CCCC2c2nc3cc(C(F)(F)F)ccc3n2CCOCCO)n1 (stereo unspecified) | i | 1.06 |
| O=C(NCCCN1CCOCC1)c1onc(CSc2ccncc2)c1C(=O)NCCCN1CCOCC1 | i | 1.13 |
| COC(=O)C1=C(C)N(CCCC(=O)O)C(=O)NC1c1cccc(OC)c1 (stereo unspecified) | i | 0.96 |
| COc1ccc(C(=O)c2ccc3oc(-c4ccc(OC)cc4)c(C#CCCO)c3c2)cc1 | i | 0.81 |
| CCC(=O)NCCc1nc(-c2ccccc2)no1 | i | 0.97 |
| CC(C)c1cc(-c2cc(C(=O)Nc3ccccc3)on2)nc(NCC2CC2)n1 | i | 0.75 |

Continuation.
SMILES	HSV augment	HSV augment primary fold
CCN(CC)S(=O)(=O)c1ccc(-c2nnc(SCC(=O)N3CCc4ccccc43)o2)cc1	i	0.81
Nc1nc(N)nc(-c2cc(Cl)ccc2Cl)n1	i	1.06
O=C1C=C(c2ccccc2)CC(c2ccc(F)cc2)C1 (stereo unspecified)	i	0.9
CCOC(=O)c1[nH]c(COC(=O)CCCOc2ccccc2)c(C(=O)OCC)c1C	i	1.01
COc1cccc(C2=CC(=O)CC(c3ccco3)C2)c1 (stereo unspecified)	i	0.89
O=C(NCC1CC1)c1cc(-c2ccccc2)nn1CC1CC(c2cccnc2)=NO1 (stereo unspecified)	i	0.86
O=C(NCCCN1CCOCC1)C1Nc2ccc(OC(F)(F)F)cc2C2C=CCC12 (stereo unspecified)	i	1.08
O=C(COc1ccccc1)Nc1cccc(-c2nnc(-c3ccccc3)o2)c1	i	0.91
COC(=O)C1=C[C@@H](C(=O)OC)[C@@H]2C3=C(C(=O)[C@]2(C)NC(=O)c2ccccc2)[C@H](C)n2c(=O)n(-c4ccccc4)c(=O)n2[C@@H]3C1	i	0.86
CC1CCc2c(nc3ncnn3c2N2CCN(c3ccccc3F)CC2)C1 (stereo unspecified)	i	0.907
CCc1c(C2(O)CCCCC2)[nH]c2ccc(C#N)cc12	i	0.95
O=[N+]([O-])c1cccc(CN2[C@@H](Cc3ccccc3)COCCS2(=O)=O)c1	i	1.04
COc1cccc(OC)c1OCCNCC1COc2ccccc2O1 (stereo unspecified)	i	0.79
O=C(O)C1=C[C@@H](c2ccc(Br)cc2)C[C@@H](OCCCCO)O1	i	0.81
COC(=O)C1N[C@@H]([C@@H](NC(=O)COc2ccccc2)C(=O)NCc2ccccc2)SC1(C)C (stereo partly specified)	i	0.91
Cn1c(=O)c2[nH]c(C3CCCC3)nc2n(C)c1=O	i	0.97
C=C1CCN(c2ccc(C(=O)NCCC)cc2[N+](=O)[O-])CC1	i	0.91
O=C(O)C[C@H]1c2ccc(C(F)(F)F)cc2S(=O)(=O)N1C1CCCCC1	i	0.95
Cc1[nH]nc(N=Cc2c(O)n(C)c(=O)n(C)c2=O)c1-c1ccccc1	i	0.96
COC(=O)c1c(C)[nH]c(C)c1C(=O)c1ccccc1Cc1ccccc1	i	0.69
O=c1c2ccccc2oc2cc(C#Cc3ccccn3)ccc12	i	0.9
NCCNC(=O)c1ncsc1-c1cccc(F)c1	i	1.02
C[N+]1(C)CCC(OC(=O)C(O)(c2ccccc2)C2CCCC2)C1 (stereo unspecified)	i	0.77
CCCc1nc2oc3c(NCCN4CCOCC4)ncnc3c2c2c1CCCC2	i	0.74
Cc1ccc(NC(=O)c2ccc(CN3CCN(C)CC3)cc2)cc1Nc1nccc(-c2cccnc2)n1	i	0.77
C#Cc1ccc2c(c1)COc1c3ccccc3nn1-2	i	0.9
CCOC(=O)CN1C(=O)N[C@@H](c2cccc(C(F)(F)F)c2)C(C(=O)OC)=C1C	i	0.78
CC(C)(C)C(O)/C=C/c1ccc2c(c1)OCO2 (stereo unspecified)	i	0.8
CCN1C(=O)N[C@@H](c2ccccc2)C(C(=O)OC)=C1C	i	0.74
COCCNC(=O)c1cc(-c2ccccc2)nn1CC1CC(c2cccnc2)=NO1 (stereo unspecified)	i	0.96
CSc1nc(C)cc(-c2cc(C(=O)Nc3ccccc3)on2)n1	i	0.79
CC1(C)C2CC[C@]3(C)C(CC=C4[C@@H]5C[C@@](C)(CO)[C@@H](O)C[C@]56C[C@@H](OC6=O)[C@]43C)[C@@]2(C)CC[C@@H]1O (stereo partly specified)	i	0.76
COc1ccc([C@@H]2C[C@@H](c3ccccc3)Oc3c(C)ccc(C(C)C)c32)cc1	i	0.93
COC(C[C@@H]1O[C@H]1C(=O)[C@@H](C)OCc1ccccc1)OC	i	0.67
O=c1c(Oc2ccccc2)coc2cc(O)cc(O)c12	i	0.9
COC(=O)c1c(C)cc(O)c(C=O)c1O	i	1
O=C(NCCc1ccccc1)c1ccc2c(c1)S(=O)(=O)c1ccccc1C2=O	i	0.82
Fc1ccc(Nc2nc(N3CCOCC3)c3ccccc3n2)cc1	i	1
CN(Cc1cnc2nc(N)nc(N)c2n1)c1ccc(C(=O)N[C@@H](CCC(=O)O)C(=O)O)cc1	i	1.06
CCOC(=O)C[C@H]1c2cc(F)ccc2S(=O)(=O)N1c1ccccc1	i	1.07

A different layout for part of the listing above:
smiles | HSV augment | HSV augment primary fold
O=C(COc1ccccc1)Nc1cccc(-c2nnc(-c3ccccc3)o2)c1 | i | 0.91
CSc1nc(C)cc(-c2cc(C(=O)Nc3ccccc3)on2)n1 | i | 0.79
COC(=O)/C(=C\c1c(OC)cc(OC)cc1OC)C(=O)c1ccc2c(c1)OCO2 | i | 0.77
COCCNC(=O)c1cc(-c2ccccc2)nn1CC1CC(c2cccnc2)=NO1 (stereo unspecified) | i | 0.96
Cc1ccc(C2C=C(c3ccccc3)Nc3ncnn32)cc1 (stereo unspecified) | i | 1.04
COC(=O)c1c(C)[nH]c(C)c1C(=O)c1ccccc1Cc1ccccc1 | i | 0.69
CCOC(=O)CN1C(=O)N[C@@H](c2cccc(C(F)(F)F)c2)C(C(=O)OC)=C1C | i | 0.78

Remaining list, next part:
SMILES	HSV augment	HSV augment primary fold
O=C(NCc1ccc2c(c1)OCO2)c1cc(-c2ccccc2)nn1CC1CC(c2cccnc2)=NO1 (stereo unspecified)	i	0.85
Nc1ccc(O)c(C(=O)O)c1	i	0.83
O=C(O)C[C@H]1c2cc(F)ccc2S(=O)(=O)N1Cc1ccccc1	i	0.87
Cc1cc(C)c(C2=CC(c3ccccc3)n3ncnc3N2)cc1C (stereo unspecified)	i	0.99
O=C(NCCc1ccc(Cl)cc1)c1cnc2n(c1=O)CCS2	i	0.9
CCC(C)Sc1nc2c(c(=O)[nH]c(=O)n2C)n1Cc1ccccc1Cl (stereo unspecified)	i	0.8
CCO[C@H]1OC(C(=O)O)=C[C@@H](C(C)(C)C)[C@@H]1CCCO	i	1.08
CCCOc1cc2c(C#N)c(N3CCCC3)nc(N)c2c(N)n1	i	0.77
O=C(NCc1cccnc1)[C@@H]1CC=C[C@@H]2CCN(Cc3ccc(Cl)c(Cl)c3)C(=O)[C@@H]21	i	0.96
CNC(C)C#Cc1ccc2c(=O)c3ccccc3oc2c1 (stereo unspecified)	i	0.95
COc1ccccc1N1CCN(CCCCN2C(=O)c3ccccc3C2=O)CC1	i	0.94
COc1cccc(SCc2noc(C(=O)NCCC(C)C)c2C(=O)NCCC(C)C)c1	i	1
Cc1ccc(Cn2c(C3CCCN3c3nc(-c4cc(Cl)c(N)c(Cl)c4)cs3)nc3cc(C(=O)NCCCO)ccc32)cc1 (stereo unspecified)	i	0.92
O=C(NCc1ccccc1)C1=C[C@H](c2ccc3c(c2)OCO3)C[C@H](OCc2ccc(CO)cc2)O1	i	0.93

Compounds above containing a cyano group:
SMILES	HSV augment	HSV augment primary fold
CCc1c(C2(O)CCCCC2)[nH]c2ccc(C#N)cc12	i	0.95
CCCOc1cc2c(C#N)c(N3CCCC3)nc(N)c2c(N)n1	i	0.77

A portion of the library (hit frequency here may not be typical).
